Compound activity: PubChem, National Center for Advancing Translational Sciences (NCATS)
TRPV1 PAM: human TRPV1 potentiation; AID 540277; TRPV1-expressing cells, Fluo-8 calcium influx, capsaicin EC20 potentiation; host cell line not named in the record; control for the full effect not named in the record; potentiation, % at 8.33 µM; Q8NER1; 0.02% of 320,000 active; active means potentiation above 80%; inconclusive means 30% to 80%; inactive means below 30%; further: 0% is about no effect
Target sequence (Q8NER1 whole entry, looked up): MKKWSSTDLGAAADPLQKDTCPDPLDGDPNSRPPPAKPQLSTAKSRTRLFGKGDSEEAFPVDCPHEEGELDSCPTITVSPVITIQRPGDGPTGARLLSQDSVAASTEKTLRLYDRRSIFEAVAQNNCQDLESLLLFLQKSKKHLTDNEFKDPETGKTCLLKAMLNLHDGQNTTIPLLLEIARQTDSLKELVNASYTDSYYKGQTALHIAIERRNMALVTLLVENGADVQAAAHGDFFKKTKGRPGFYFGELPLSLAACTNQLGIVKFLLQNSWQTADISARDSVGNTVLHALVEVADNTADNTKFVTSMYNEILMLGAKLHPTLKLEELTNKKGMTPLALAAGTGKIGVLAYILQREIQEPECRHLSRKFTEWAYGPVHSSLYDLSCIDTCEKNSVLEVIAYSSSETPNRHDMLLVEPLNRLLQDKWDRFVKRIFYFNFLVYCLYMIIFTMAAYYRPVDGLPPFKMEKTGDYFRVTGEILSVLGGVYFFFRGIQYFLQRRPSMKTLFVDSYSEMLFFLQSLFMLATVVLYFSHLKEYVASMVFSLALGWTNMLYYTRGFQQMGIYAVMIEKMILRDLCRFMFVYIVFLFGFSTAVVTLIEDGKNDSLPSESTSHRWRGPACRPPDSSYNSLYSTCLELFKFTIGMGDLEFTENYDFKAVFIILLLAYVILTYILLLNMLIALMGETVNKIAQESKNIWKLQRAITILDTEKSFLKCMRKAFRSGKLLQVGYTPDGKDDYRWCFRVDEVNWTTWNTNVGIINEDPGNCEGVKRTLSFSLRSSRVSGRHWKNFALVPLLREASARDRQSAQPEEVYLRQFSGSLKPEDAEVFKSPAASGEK
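TRPV1-expressing cells were cultured overnight at 35.5C and loaded with Fluo-8 calcium dye for 40 to 90 min at room temperature. After a 10 s baseline, compound was added and calcium influx was read kinetically for 3 min (ex 480/em 520 nm).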
Menin-MLL FL inh: menin-MLL binding inhibition, fluorescein peptide; FP activity change, % at 61.4 µM; 290,000 tested, under 10 active; AID 1766; Fluorescence polarization, fluorescein-MLL peptide displacement from menin; inconclusive = falling polarisation curve, or a change in total fluorescence; inactive = total fluorescence flat and polarisation flat or rising; no compound was filed as active; the % refers to the polarisation; negative = inhibition;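 further: % of control where 0% means no effect; inhibitors lower the polarisation; unlabelled MLL peptide was the positive control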
ClpP mod: qHTS Assay for Activators of ClpP; ATP-dependent Clp protease proteolytic subunit (Bacillus subtilis (strain 168)), P80244; purified B. subtilis ClpP, FRET peptide cleavage, 20 min; Potency, µM (highest dose often 57.5 µM), without a hit: top-dose activity change, negative = active; 1.9% of 340,000 active; AID 651965, 2013; active = well fitted falling curve with a large enough effect; inconclusive = small, poorly fitted or top-dose-only effect; inactive = no such curve, though single readings can be large or run the other way; further: potency means the concentration at half of the fitted maximal effect; the source files actives as falling curves though it sought activators and does not explain the sign; nearly all actives have a fitted effect of over 65% in size; many hits overshoot -100%
Target sequence (P80244 whole entry, looked up): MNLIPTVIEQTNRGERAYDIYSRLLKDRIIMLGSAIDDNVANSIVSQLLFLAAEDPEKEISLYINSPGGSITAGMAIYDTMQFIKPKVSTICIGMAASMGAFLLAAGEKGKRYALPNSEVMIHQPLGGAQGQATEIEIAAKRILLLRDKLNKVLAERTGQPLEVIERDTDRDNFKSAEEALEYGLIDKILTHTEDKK
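FRET quenching reversal measured ClpP activation: 10 microg/mL B. subtilis ClpP at pH 8 with the FRET-FV decapeptide, read at 430 nm after 320 nm excitation. The 20-min minus 0-min signal was scaled between DMSO/no-enzyme wells and ADEP (5.8 microM final).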
TRPML1 blocker: inhibitors of human TRPML1 channel; Q9GZU1; TRPML1-inducible cells, Ca2+ dye fluorescence, FDSS; stronger effect = lower value; inhibition of EC80 agonist-evoked calcium signal; AID 624415; 0.02% of 390,000 active; activity change, negative = inhibition, % (test concentration not listed); in the data active means activity change below about -50%; inconclusive means about -30% to -50%; inactive means above about -30%;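 further: stimulus is agonist 54-4 at its EC80 concentration; on the % scale 0 is the no-effect control and ±100 the full control effect; compound concentration not given in the record; the text of the record puts the active cut at -80%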
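Tet-induced TRPML1-DL cells loaded with Ca8 no-wash calcium dye were read kinetically on FDSS. Compound addition was followed by EC80 agonist 54-4 (4 uM final); inhibition was read over 110 s.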
Sfp PPTase inh: Sfp phosphopantetheinyl transferase inhibition; Q9F4F7; Biochemical Sfp PPTase activity, qHTS; Potency, µM, without a hit: max response, negative = inhibition, actives largely listed as inhibitors; 3.5% of 310,000 active; active means well fitted inhibition curve with a large enough effect; inconclusive means small, poorly fitted or top-dose-only effect, or another doubt; inactive means no such curve, though single readings can be large or run the other way;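 further: the enzyme is Sfp with the accession as filed and its product quenches rhodamine fluorescence; potency means the concentration at half of the fitted maximal effect; 0% = enzyme reaction without inhibitor and -100% = no enzyme wells; top concentration of the series not given in the record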
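With Hepes-Na pH 7.6 buffer containing 10 mM MgCl2, Sfp (15 nM) modified BHQ-2-YbbR (12.5 uM) using rhodamine-CoA (5 uM). Two reads 30 minutes apart at 525/598 nm yielded each well's rate.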
gsp agonist: agonists of gsp mutant (McCune-Albright syndrome) | gsp mutant cells, cAMP HTRF, 30 min; control for the full effect not named in the record | Potency, µM (highest dose often 76.9 µM), for the others: at the top dose activation (cAMP increase), usual class: activators | 0.13% of 340,000 active | AID 624287; active = well fitted activation curve with a large enough effect; inconclusive = small, poorly fitted or top-dose-only effect, or another doubt; inactive = no such curve, though single readings can be large or run the other way; cell line not stated here;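 further: phosphodiesterase inhibitor Ro 20-1724 added with compounds to block cAMP breakdown; potency means the concentration at half of the fitted maximal effect; nearly all actives have a fitted effect of over 60% in size; about a fifth of the inactives were tested at one dose only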
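Cells in DMEM/10% FBS with G418 were pretreated with compounds in DMSO plus […] (300 uM stock) for 30 min at 37C. cAMP was measured by HTRF (cAMP-d2 plus anti-cAMP antibody-K) after 30 min at room temperature.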
gsp antagonist: antagonists of gsp mutant (McCune-Albright syndrome); gsp-mutant cells, cAMP HTRF, 30 min; control for the full effect not named in the record; Potency, µM (top dose mostly 76.9 µM), inactives show at the highest dose activity change, negative = inhibition, actives largely listed as inhibitors; 0.4% of 340,000 active; active = falling curve of any shape with a large fitted effect; inconclusive = falling curve, mostly with a smaller effect; inactive = flat or rising curve; cell line not stated here;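 further: intracellular cAMP measured with PDE inhibitor Ro 20-1724 present during compound exposure; potency means the concentration at half of the fitted maximal effect; on the % scale 0 is the no-effect control and ±100 the full control effect; nearly all actives have a fitted effect of over 65% in size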
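HTRF cAMP measurement after 30 min RT detection following 30 min, 37C compound treatment alongside […] (added as 300 uM solution) in G418-selected cells seeded at 2000/well and grown 16–24 h.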
Starred values were filed as active, the others as inactive; [ ] = dose if it differs, or a comment.

Results for CC(C)c1ccc(/C=C2\C(=O)N(CCN3CCOCC3)C(=S)N2C)cc1 ?
TRPV1 PAM: -6; Menin-MLL FL inh: -3.4; TRPML1 blocker: -1; Sfp PPTase inh: -6%; gsp agonist: -24%; gsp antagonist: -14%

Results for O=C(CCCNS(=O)(=O)c1cccs1)N1CCN(c2ccc(F)cc2)CC1 ?
TRPV1 PAM: -17; Menin-MLL FL inh: 0.0; ClpP mod: -3.6%; TRPML1 blocker: 10; Sfp PPTase inh: 8%; gsp agonist: -18%; gsp antagonist: 3%

Results for N#Cc1ccccc1S(=O)(=O)N1CCN(c2cnccn2)CC1 ?
TRPV1 PAM: -15; Menin-MLL FL inh: 0.4; TRPML1 blocker: -3; Sfp PPTase inh: 24%; gsp agonist: -38%; gsp antagonist: 4%

How did NC(=S)N/N=C/c1coc2ccc(Cl)cc2c1=O do in these assays?
TRPV1 PAM: 23; Menin-MLL FL inh: -2.7; TRPML1 blocker: 0; Sfp PPTase inh: 20%; gsp agonist: -3%[15.4 µM]; gsp antagonist: 4%

How did C/C(=N\NC(=S)Nc1cccc(C)c1)c1cccc(N)c1 do in these assays?
TRPV1 PAM: 5; Menin-MLL FL inh: 0.0; ClpP mod: -15%; TRPML1 blocker: 0; Sfp PPTase inh: 7%; gsp agonist: 17%; gsp antagonist: -2%

How did Cn1c(=O)oc2cc(S(=O)(=O)N3CCC(N4CCCCC4)CC3)ccc21 do in these assays?
TRPV1 PAM: 6; Menin-MLL FL inh: 1.2; ClpP mod: 0.9%; TRPML1 blocker: 0; Sfp PPTase inh: 9%; gsp agonist: -26%; gsp antagonist: 6%

What do the screens show for `CCC(CC)C(=O)Oc1c(C(=O)N(C)C)cccc1-c1ccccc1`?
TRPML1 blocker: -2; gsp agonist: -35%[inhibitor]; gsp antagonist: -2%

What do the screens show for `CN(c1ccccc1)S(=O)(=O)c1ccc(C(=O)NCC2CCCO2)cc1` (configuration not stated)?
TRPV1 PAM: -11; Menin-MLL FL inh: -2.8; ClpP mod: -1.4%; TRPML1 blocker: 26; Sfp PPTase inh: 9%; gsp agonist: -58%[inhibitor]; gsp antagonist: 8%

Results for COc1ccccc1N=Nc1nc(-c2ccccc2)c(-c2ccccc2)[nH]1 ?
TRPV1 PAM: -3; Menin-MLL FL inh: 11; ClpP mod: 1.1%; TRPML1 blocker: 7; Sfp PPTase inh: -3%; gsp agonist: -59%[inhibitor]; gsp antagonist: inconclusive

What do the screens show for `CC(C)C(=O)Nc1nc2c(ncn2C2CC(O)C(CO)O2)c(=O)[nH]1` (configuration not stated)?
TRPV1 PAM: 17; Menin-MLL FL inh: 1.1; ClpP mod: -12%; TRPML1 blocker: -6; Sfp PPTase inh: 15%; gsp agonist: -117%[inhibitor]; gsp antagonist: 6%

How did O=C(Cc1c[nH]c2ccccc12)N/N=C/c1ccccc1O do in these assays?
TRPV1 PAM: 23; Menin-MLL FL inh: 2.2; ClpP mod: -11%; TRPML1 blocker: 11; Sfp PPTase inh: 9%; gsp agonist: 10%; gsp antagonist: -2%

How did CCc1nc2ccccc2n(CCOCCOCCn2c(=O)c(CC)nc3ccccc32)c1=O do in these assays?
TRPV1 PAM: -8; Menin-MLL FL inh: -2.5; ClpP mod: -18%; TRPML1 blocker: 18; Sfp PPTase inh: 10%; gsp agonist: 2%; gsp antagonist: 0%

How did O=C(Nc1ccccc1)N1CCN(c2nc(-c3ccccc3)ns2)CC1 do in these assays?
TRPV1 PAM: -4; Menin-MLL FL inh: 7.2; ClpP mod: 0.1%; TRPML1 blocker: -3; Sfp PPTase inh: 5%; gsp agonist: 9%[15.4 µM]; gsp antagonist: 35µM*

What do the screens show for `COc1ccc(C(CNC(=O)c2ccc(-c3ccccc3Cl)o2)N2CCOCC2)cc1` (configuration not stated)?
TRPV1 PAM: -6; ClpP mod: 3.9%; TRPML1 blocker: 8; gsp agonist: -1%[15.4 µM]; gsp antagonist: -10%

What do the screens show for `CCOCCSC1=C(C#N)C(c2cccs2)C(C(C)=O)=C(C)N1` (configuration not stated)?
TRPV1 PAM: 7; Menin-MLL FL inh: 2.2; ClpP mod: -1.0%; TRPML1 blocker: 1; Sfp PPTase inh: 5%; gsp agonist: 17%; gsp antagonist: -17%

What do the screens show for `COc1cccc(CNC(=O)C2CCCN(c3ncnc4c3nc3n4CCCCC3)C2)c1` (configuration not stated)?
TRPV1 PAM: 4; ClpP mod: -0.7%; TRPML1 blocker: -4; Sfp PPTase inh: 3%; gsp agonist: 1%; gsp antagonist: 4%

What do the screens show for `COc1ccc(NC(=O)Nc2cccc3c2O[C@H](CN(C)Cc2ccc(-c4ccccc4)cc2)[C@@H](C)CN([C@H](C)CO)C3=O)cc1`?
ClpP mod: -9.6%; TRPML1 blocker: -5; gsp antagonist: -9%

How did CCOC(=O)c1ccc(-c2ccc(/C=C(\C#N)C(=O)NCc3cccs3)o2)cc1 do in these assays?
TRPV1 PAM: 11; Menin-MLL FL inh: 5.3; ClpP mod: -1.2%; TRPML1 blocker: -12; Sfp PPTase inh: 16%; gsp agonist: inconclusive; gsp antagonist: 10%

How did O=C(Cc1ccc(Cl)cc1)OCC(=O)c1ccc[nH]1 do in these assays?
TRPV1 PAM: 18; ClpP mod: 2.0%; TRPML1 blocker: 4; gsp agonist: -17%; gsp antagonist: inconclusive

Results for CC(=O)c1cccc(N(C(=O)CNC(=O)c2ccco2)C(C(=O)NC2CCCC2)c2ccc(C)o2)c1 (configuration not stated) ?
TRPV1 PAM: -1; Menin-MLL FL inh: 0.4; TRPML1 blocker: -15; Sfp PPTase inh: 18%; gsp agonist: 10%[15.4 µM]; gsp antagonist: 0%

Results for CN(CC(=O)Nc1cccc(C#N)c1)Cc1ccc(Cl)cc1 ?
TRPV1 PAM: -5; Menin-MLL FL inh: -0.3; TRPML1 blocker: 2; Sfp PPTase inh: 14%; gsp agonist: -21%[15.4 µM]

What do the screens show for `CCCCn1c(NC(=O)c2ccccc2Cl)c(C#N)c2nc3ccccc3nc21`?
TRPV1 PAM: 18; Menin-MLL FL inh: 12; ClpP mod: -21%; TRPML1 blocker: 8; Sfp PPTase inh: 7%; gsp agonist: 2%; gsp antagonist: inconclusive

What do the screens show for `Cc1cccc(NS(=O)(=O)c2ccc(C(=O)NCC3(N4CCCCC4)CCCCC3)cc2)c1C`?
TRPV1 PAM: -1; ClpP mod: 1.0%; TRPML1 blocker: -9; gsp agonist: -36%[inhibitor]; gsp antagonist: 1%

Results for O=C(N/N=C/c1cn(-c2ccccc2)nc1-c1cccs1)c1ccc(Cl)cc1 ?
TRPV1 PAM: -6; Menin-MLL FL inh: 6.7; ClpP mod: 32µM*; TRPML1 blocker: -10; Sfp PPTase inh: -5%; gsp agonist: 4%; gsp antagonist: -13%

What do the screens show for `CC(C)=CC/C=C1\CCC(C(=O)O)C(C(=O)O)C1` (configuration not stated)?
TRPV1 PAM: -12; Menin-MLL FL inh: 2.8; ClpP mod: -1.4%; TRPML1 blocker: -5; Sfp PPTase inh: 12%; gsp agonist: -2%; gsp antagonist: 5%

How did COc1ccccc1CC(=O)Nc1ccc([N+](=O)[O-])cc1OC do in these assays?
TRPV1 PAM: -1; Menin-MLL FL inh: 4.9; ClpP mod: 7.1µM*; TRPML1 blocker: 2; Sfp PPTase inh: -9%; gsp agonist: -3%; gsp antagonist: 7%

How did Cc1ccc(C(=O)Nc2cc(C)nn2CCC#N)cc1 do in these assays?
TRPV1 PAM: 14; Menin-MLL FL inh: 0.9; TRPML1 blocker: 6; Sfp PPTase inh: 15%; gsp agonist: 7%[15.4 µM]; gsp antagonist: 1%

How did Cc1n[nH]c(C)c1Sc1ccccc1[N+](=O)[O-] do in these assays?
TRPV1 PAM: 3; Menin-MLL FL inh: 0.1; TRPML1 blocker: 9; Sfp PPTase inh: 6%; gsp agonist: 7%[15.4 µM]; gsp antagonist: -9%

How did Cc1ccc(N2C(=O)CSC2c2cccs2)cc1 (configuration not stated) do in these assays?
TRPV1 PAM: -20; Menin-MLL FL inh: -1.7; ClpP mod: -1.6%; TRPML1 blocker: -14; Sfp PPTase inh: 9%; gsp agonist: -5%; gsp antagonist: -11%

How did O=C(COc1ccc(Cl)cc1)Nc1nc(-c2ccncc2)cs1 do in these assays?
TRPV1 PAM: 15; ClpP mod: -0.4%; TRPML1 blocker: 13; Sfp PPTase inh: 22µM*; gsp agonist: -11%; gsp antagonist: -4%

Results for COc1cc(OC)c(NC(=O)c2sc3ncn(CC(=O)N4CCOCC4)c(=O)c3c2C)cc1Cl ?
TRPV1 PAM: -8; ClpP mod: -5.7%; TRPML1 blocker: 8; Sfp PPTase inh: 9%; gsp agonist: -50%[inhibitor]; gsp antagonist: -8%

What do the screens show for `N#Cc1cc([N+](=O)[O-])ccc1NC(=O)COC(=O)C12CC3CC(CC(C3)C1)C2`?
TRPV1 PAM: -2; Menin-MLL FL inh: -0.2; Sfp PPTase inh: inconclusive

What do the screens show for `O=C(Nc1ccc(F)c(S(=O)(=O)N2CCOCC2)c1)C1CCCCC1`?
TRPV1 PAM: -16; ClpP mod: 1.0%; TRPML1 blocker: 31; gsp agonist: 4%; gsp antagonist: 4%

Results for COc1ccccc1Oc1ccc(NC(=O)c2ccccc2)cc1 ?
TRPV1 PAM: -3; Menin-MLL FL inh: -2.9; TRPML1 blocker: 37; Sfp PPTase inh: 18%; gsp agonist: 0%[15.4 µM]; gsp antagonist: 1%

What do the screens show for `COCCN(Cc1nc(-c2ccc(C(F)(F)F)cc2)no1)C(C)C`?
TRPV1 PAM: -15; Menin-MLL FL inh: -6.8; TRPML1 blocker: 3; Sfp PPTase inh: 20%; gsp agonist: -3%[15.4 µM]; gsp antagonist: 8%

Results for COC(=O)c1cccc(S(=O)(=O)N2CCCC2)c1 ?
TRPV1 PAM: 1; Menin-MLL FL inh: -1.3; ClpP mod: 0.6%; TRPML1 blocker: -8; Sfp PPTase inh: -9%; gsp agonist: 26%; gsp antagonist: 19%

How did COC(=O)c1[nH]nc2c1C(=O)N(Cc1ccccc1)C2=O do in these assays?
TRPV1 PAM: 17; Menin-MLL FL inh: inconclusive; ClpP mod: -3.2%; TRPML1 blocker: -3; Sfp PPTase inh: 23%; gsp agonist: -22%; gsp antagonist: -13%
